Bioassay records from PubChem.
Env fusion inh: HIV envelope-mediated fusion inhibition; HeLa-JRFL Env/CEM21 cell fusion, luciferase; inhibition, % at 12.3 µM; 360,000 tested, 1.1% active;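 active = mean replicate inhibition score of at least 50 and every replicate individually at or above 50; inconclusive = only one of the two criteria met; inactive = mean below 50 and not all replicates reaching 50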;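 note: 0% = plate neutral controls and 100% = maraviroc near 300 nM; one replicate is shown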
UUG fidelity: yeast start codon fidelity modulation; 350,000 tested, 0.13% active; S. cerevisiae UUG-firefly luciferase reporter, luminescence/redox ratio; activity score, % at 18.7 µM;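 active = replicate mean at a twofold rise or more, about +100% in these data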;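 note: firefly luciferase made from a UUG start codon reports start codon fidelity; reporter light over untreated wells divided by growth signal over untreated wells; some hits fall short of that in this replicate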
CSC inhib: blocks cancer stem cells. inhibition, % at 7.5 µM. cancer stem cell-like cells viability, luminescence. 300,000 tested, 1.1% active. AID 2717;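 active = mean at 75% or more and at least half the replicates too; inconclusive = mean and replicates disagree; tested in HMLE shEcad cells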;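 note: 0% = median of negative and 100% = median of positive control wells; the first replicate is given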
PABP FP inh: PABP-poly(A) binding inhibition; P11940; PABP-poly(A) RNA binding, fluorescence polarization; inhibition, % at 35 µM; 290,000 tested, 1% active; AID 2014;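 active = 50% or more with normal probe brightness, or confirmed in later tests; inconclusive = above 50% with abnormal brightness, or retests that disagree; inactive = below 50% or failed in later tests; about a fifth of its hits are not listed in these tables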;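 note: calls also rest on retests at 20 µM and on dose response follow-up; controls were probe without protein and protein plus probe with vehicle; some compounds called inactive have numbers as strong as hits; many hits fall short of the cut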
Target sequence (P11940 whole entry, looked up): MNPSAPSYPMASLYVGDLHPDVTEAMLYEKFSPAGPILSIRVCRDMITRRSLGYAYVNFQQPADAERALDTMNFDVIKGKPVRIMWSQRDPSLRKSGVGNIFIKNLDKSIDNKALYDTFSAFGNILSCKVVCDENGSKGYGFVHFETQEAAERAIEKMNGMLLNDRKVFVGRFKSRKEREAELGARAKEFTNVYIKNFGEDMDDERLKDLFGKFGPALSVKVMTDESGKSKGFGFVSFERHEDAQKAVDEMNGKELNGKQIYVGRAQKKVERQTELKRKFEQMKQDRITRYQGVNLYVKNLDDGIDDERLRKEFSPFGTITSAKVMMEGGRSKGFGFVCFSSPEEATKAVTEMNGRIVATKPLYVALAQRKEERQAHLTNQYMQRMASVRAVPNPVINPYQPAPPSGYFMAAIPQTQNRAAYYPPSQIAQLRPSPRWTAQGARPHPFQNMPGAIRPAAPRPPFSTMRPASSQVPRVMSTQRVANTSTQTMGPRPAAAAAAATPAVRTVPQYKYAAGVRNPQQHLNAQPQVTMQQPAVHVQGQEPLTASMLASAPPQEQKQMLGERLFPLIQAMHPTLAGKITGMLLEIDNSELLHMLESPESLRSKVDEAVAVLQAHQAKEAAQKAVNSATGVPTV
Rce1 inh: yeast Ras-converting enzyme inhibition | yeast membranes, quenched prenylated peptide cleavage fluorescence | calls only | Q03530 | 290,000 tested, 0.27% active;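 active = fall in fluorescence gain of 50% or more versus controls, with final raw signal at or below 3038400; inconclusive = same 50% fall but final raw signal above 3038400; inactive = fall in fluorescence gain under 50%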;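 note: plate controls were neutral control wells for no effect and wells lacking membranes for full effect; tested at 10 µM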
MT1-MMP act inh: inhibitors of human MT1-MMP activation | P50281 | HT1080 RFP-PRO-GFP cells, GFP/RFP ratio fluorescence, overnight; percent of plate control window, DMSO zero | GFP/RFP ratio change, % at 20 µM | 360,000 tested, 0.061% active;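 active = GFP/RFP ratio change of at least 30% with cell ATP level not reduced by more than half and red fluorescence within 50% of control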; note: strong numbers were not always called active
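Assay system: HT1080 RFP-PRO-GFP cells. Benchmarks: DMSO vehicle wells and RFP-L50D-GFP reporter cell wells. Times: overnight cell settling, then overnight compound exposure, 37 °C, 5% CO2. Compound: 20 µM single dose, 1% DMSO. Read-out basis: GFP/RFP fluorescence ratio.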
eIF4H FP inh: inhibitors of RNA binding by human eIF4H | 290,000 tested, 0.94% active | AID 2012 | inhibition, % at 35 µM | eIF4H fluorescence polarization binding assay | Q15056;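 active = 50% or more with normal probe brightness, or confirmed in later tests; inconclusive = above 50% with abnormal brightness, or retests that disagree; inactive = below 50% or failed in later tests; about a fifth of its hits are not listed in these tables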;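 note: calls also rest on retests at 20 µM and on dose response follow-up; 0% = protein and probe with vehicle and 100% = probe without protein; strong numbers were not always called active; many hits fall short of the cut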
MT1-MMP act inh RFP: also measured in MT1-MMP act inh; calls as there; RFP signal change, %; measured here: RFP expression control read;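 0 = vehicle wells; hits needed this value within 50% of zero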
The depositor's hits bear a star; i = inactive; ? = inconclusive; . = not tested or not shown; & = joins results of further samples. The list is partial, so the mix of outcomes need not match the whole.

Start of the data: the first four compounds (preview)
SMILES	Env fusion inh	UUG fidelity	CSC inhib	PABP FP inh	Rce1 inh	MT1-MMP act inh	MT1-MMP act inh RFP	eIF4H FP inh
Cc1cc(CNC(=O)c2cc(COc3c(F)cccc3F)on2)nn1C	14.2	.	-27.8	10.1	i	-0.3	-0.6	-1.1
CCOC(=O)n1c(=O)oc2cc(S(=O)(=O)N3CCCCC3)ccc21	.	.	-12.5	4.2	i	-0.2	-4.5	-4.5
C[C@H]1CN([C@@H](C)CO)C(=O)CCCn2nncc2CO[C@H]1CN(C)S(C)(=O)=O	-4.5	-6.8&-9.7&-12.1	.	.	.	3.1	6.0	.
Cc1ccccc1C(=O)Nc1ccccc1N1CCCCC1	20.0	.	24.7	-4.4	i	-5.0	-5.6	-2.6

The listing, from the first entry:
SMILES	Env fusion inh	UUG fidelity	CSC inhib	PABP FP inh	Rce1 inh	MT1-MMP act inh	MT1-MMP act inh RFP	eIF4H FP inh
Cc1cc(CNC(=O)c2cc(COc3c(F)cccc3F)on2)nn1C	14.2	.	-27.8	10.1	i	-0.3	-0.6	-1.1
CCOC(=O)n1c(=O)oc2cc(S(=O)(=O)N3CCCCC3)ccc21	.	.	-12.5	4.2	i	-0.2	-4.5	-4.5
C[C@H]1CN([C@@H](C)CO)C(=O)CCCn2nncc2CO[C@H]1CN(C)S(C)(=O)=O	-4.5	-6.8&-9.7&-12.1	.	.	.	3.1	6.0	.
Cc1ccccc1C(=O)Nc1ccccc1N1CCCCC1	20.0	.	24.7	-4.4	i	-5.0	-5.6	-2.6
COc1ccccc1C(=O)NNC(=O)C(=O)NC(C)C	1.7	.	0.0	5.7	i	-0.5	3.1	2.2
CC(NC(=O)c1ccc(-c2ccccc2)cc1)C(c1ccccc1)N1CCOCC1 (centres undefined)	1.9	-2.6	.	.	.	-5.0	-6.9	.
O=C(C1CCCO1)N(c1cccc(Cl)c1)C1C=CS(=O)(=O)C1 (centres undefined)	.	.	-2.2	-1.5	i	6.7	2.3	-5.2
N#Cc1ccccc1NC(=O)CSc1cn[nH]n1	-10.2	-8.7	9.4	-1.4	i	-1.0	0.6	3.0
O=C(c1ccc(Br)o1)N1CCN=C1SCc1cccc(F)c1	-15.0	-8.1	-2.2	2.4	i	1.2	2.8	-17.3
O=C1CCc2cc(S(=O)(=O)N3CCN(Cc4ccc5c(c4)OCO5)CC3)ccc2N1	.	-4.2	-16.1	-3.6	i	-3.5	-7.8	38.9
Cc1cccc(N2CCN(C(=O)c3cc(S(=O)(=O)N4CCCC4)cn3C)CC2)c1C	-34.2	-11.0	50.2	-8.6	i	-3.7	-12.9	-2.6
Cc1nc(NC(=O)COC(=O)C(C)NC(=O)c2ccccc2)c(Cl)cc1Cl (centres undefined)	.	-10.4	-20.3	.	.	0.5	1.1	.
Cc1ccccc1C(=O)NCCOc1ccccc1Cl	-137.8	-12.1	4.3	19.9	i	0.3	-0.4	4.9
CCN(CC)c1ccc(/C=N/NC(=O)c2nnn(-c3nonc3N)c2CN(C)C2CCCCC2)cc1	8.4	0.1	.	.	.	-6.2	-3.7	.
Cc1cc(C)c(OCC(=O)N(Cc2cccs2)C2CCS(=O)(=O)C2)c(C)c1 (centres undefined)	17.0	-31.0	-3.9	-3.4	i	0.6	-0.8	0.9
COc1ccccc1NC(=O)Cc1cccc2ccccc12	9.5	-3.5	-10.2	3.0	i	-1.4	-2.7	-0.4
CCOc1ccc(-c2cc(C(=O)N/N=C/c3ccc(O)cc3)c3ccccc3n2)cc1	-423.5	.	58.4	.	i	22.5	-4.7	.
Cc1sc2ccccc2[n+]1CC(=O)c1ccccc1	.	-6.6	-10.9	2.2	i	-1.9	-4.6	-2.3
O=C(CSc1ncn[nH]1)Nc1nc(-c2ccccc2)cs1	.	-10.5	0.5	4.6	i	-0.4	1.5	10.7
Cc1ccc(S(=O)(=O)Nc2cccc(C(=O)NCC(c3ccco3)N(C)C)c2)cc1F (centres undefined)	1.6	.	-3.6	.	i	2.7	-0.9	.
COCCNC(=O)/C(C#N)=C/c1cc(C(C)C)c(OC)cc1C	13.4	.	-7.1	-4.3	i	-0.8	-2.6	-2.1
CC(OC(=O)CCCCCN=C1NS(=O)(=O)c2ccccc21)C(=O)Nc1cc(Cl)cc(Cl)c1 (centres undefined)	6.1	.	-21.1	-8.5	i	2.6	0.1	-5.6
Cc1ccc(Cn2c(C(C)Nc3nc(-c4ccc(F)cc4)cs3)nc3cc(Cl)c(Cl)cc32)cc1 (centres undefined)	?	-16.0	0.4	.	i	-7.7	-13.5	.
O=C(NCc1ccc2c(c1)OCO2)NC12CC3CC(CC(C3)C1)C2	23.3	8.2	21.9	-1.0	i	2.8	-2.3	5.2
CCOC(=O)C1CCN(C(=O)c2ccc(Cl)c(Cl)c2)CC1	.	2.2	-8.0	-2.0	.	1.6	-2.0	2.7
COc1ccc2nc(NC(=O)c3cccs3)sc2c1	-184.7	-15.2	30.5	-2.1	i	-2.5	-0.5	-7.9
CCN(CC)CCNC(=O)/C(=C/c1cn(CC)c2ccccc12)NC(=O)c1cc(OC)c(OC)c(OC)c1	13.1	.	-7.8	10.2	i	-0.4	1.9	-0.3
O=C(NC1CC1)c1cccc2c1C(=O)c1ccc(N3CCC(Cc4ccccc4)CC3)cc1S2(=O)=O	19.8	-20.1	26.7	.	.	-221.9	-24.5	.
COc1ccc(N2CCN(CCNC(=O)CCN3C(=O)COc4ccccc43)CC2)cc1	.	-15.8	-3.9	-7.7	i	4.1	8.0	-7.6
COc1ccc(C(=O)NC(C)c2ccccc2)cc1Br (centres undefined)	8.5	.	-5.0	-19.1	i	1.6	-2.7	4.9
COc1cc(O)sc1C=Nc1ccc(Cl)cc1	-120.2	2.7	-0.6	11.3	i	-5.3	-5.3	0.4
O=C(NC1CCN(S(=O)(=O)c2cccc(F)c2)CC1)c1cccc(F)c1	-9.6	-33.0	-1.5	-2.3	i	3.9	-0.7	-5.6
COc1cc(CC(=O)NCc2ccccn2)cc(OC)c1OC	.	-29.5	-6.3	0.2	i	-2.3	0.4	-13.1
CN(Cc1ccccc1)C(=O)CNC(=O)Cn1cnc2ccccc2c1=O	.	-19.1	-12.3	-1.5	i	0.6	1.0	7.4
CC(C)CCN1CCNC(=O)C1CC(=O)Nc1ccc(F)cc1 (centres undefined)	-3.1	-16.5	-8.8	7.5	i	-1.6	1.6	2.1
COc1ccc(CN2C[C@]3(CO)O[C@@H](CO)C[C@@H]3S2(=O)=O)cc1	29.9	-3.5	.	.	.	4.5	8.8	.
O=C(c1ccco1)N(CCC(c1ccccc1)c1ccco1)Cc1ccccc1 (centres undefined)	19.8	.	4.8	10.5	i	-3.5	-1.6	43.4
C=CCNC(=S)NNC(=O)c1cccn(Cc2ccc(Cl)c(Cl)c2)c1=O	-29.5	-26.2	-10.8	-6.5	i	14.4	-3.2	-5.2
CCOC(=O)c1c(C)nc2ccc(Cl)cc2c1-c1ccccc1	.	.	9.8	-11.7	i	13.7	-6.5	-11.5
CCCc1nnc(NC(=O)CSc2nc3ccccc3[nH]2)s1	-7.5	-19.0	-10.5	1.6	i	4.3	-2.6	-1.5

Some of the entries above in another layout.
smiles: COCCNC(=O)/C(C#N)=C/c1cc(C(C)C)c(OC)cc1C
  Env fusion inh = 13.4
  UUG fidelity = .
  CSC inhib = -7.1
  PABP FP inh = -4.3
  Rce1 inh = i
  MT1-MMP act inh = -0.8
  MT1-MMP act inh RFP = -2.6
  eIF4H FP inh = -2.1
smiles: CC(OC(=O)CCCCCN=C1NS(=O)(=O)c2ccccc21)C(=O)Nc1cc(Cl)cc(Cl)c1 (centres undefined)
  Env fusion inh = 6.1
  UUG fidelity = .
  CSC inhib = -21.1
  PABP FP inh = -8.5
  Rce1 inh = i
  MT1-MMP act inh = 2.6
  MT1-MMP act inh RFP = 0.1
  eIF4H FP inh = -5.6

(continued)
SMILES	Env fusion inh	UUG fidelity	CSC inhib	PABP FP inh	Rce1 inh	MT1-MMP act inh	MT1-MMP act inh RFP	eIF4H FP inh
Cc1ccc(NC(=O)CN2C(=O)NC3(CCCC3)C2=O)nc1	.	.	-7.1	.	i	1.1	-0.8	.
CC1(C(=O)NCc2cccc3ccccc23)CCN1Cc1ccccc1OC(F)F (centres undefined)	38.9	-14.2	.	.	.	-3.6	-7.1	.
Cc1nc2cc(NC(=O)Nc3ccc(N4CCOCC4)cc3)ccc2n1C	.	-14.8	-5.7	1.0	i	3.1	1.2	-1.5
Cc1cc(Br)ccc1NC(=O)CNC(=O)Cc1ccc(S(=O)(=O)N2CCOCC2)s1	.	-2.3	12.9	.	.	-0.3	-2.3	.
COC(=O)c1ccc(C(=O)OC)c(NC(=O)CN(c2ccc3c(c2)OCO3)S(C)(=O)=O)c1	.	-4.7	-16.1	-0.6	i	2.5	-2.3	8.9
CCc1ccc(C(C)NC(=O)C2(C)CC2(Br)Br)cc1 (centres undefined)	.	-1.9	-22.6	9.5	i	1.0	8.6	6.6
Cc1c(NC(=O)CCSc2ccc(Cl)cc2)c(=O)n(-c2ccccc2)n1C	.	4.3	3.1	-2.4	i	-0.9	-2.8	2.1
CCSc1nc2ccccc2c(=O)n1C1CCOC(C)(C)C1 (centres undefined)	5.5	.	-31.9	2.1	i	-2.8	-1.0	0.0
CNC(=O)C1CN(C(=O)c2cccc(S(=O)(=O)N3CCc4ccccc43)c2)c2ccccc2O1 (centres undefined)	60.2*	1.5	.	.	.	-5.6	-3.9	.
FC(F)(F)c1cnc(C(c2ccccn2)c2ncn[nH]2)c(Cl)c1 (centres undefined)	-3.9	.	1.2	4.9	i	4.4	4.0	10.5
COc1ccc(C(NC(=O)C(C)C)c2c(O)ccc3ccccc23)cc1 (centres undefined)	-1.8	.	60.1	0.9	i	-7.2	-12.6	-8.6
CCN(CC)S(=O)(=O)c1ccc(NC(=O)c2cnccn2)cc1	-10.6	5.2	-2.0	0.3	i	5.3	-0.8	-4.6
COc1ccc(-c2ccc(NS(=O)(=O)c3cccc([N+](=O)[O-])c3)cc2)nn1	-4.9	-15.3	-10.1	14.3	i	4.4	4.7	-1.2
COc1ccc(OC)c(C(=O)c2ccccc2)c1	.	-5.5	-6.0	2.0	i	9.5	1.3	-3.6
CC(=O)c1cc2c(=O)c3cc(C)ccc3oc2nc1C	.	-21.0	-2.5	-4.9	i	4.2	3.2	-9.3
O=C(N/N=C\c1ccc(OC(=O)c2ccco2)cc1)c1ccc(Cl)cc1	-27.6	.	47.3	-4.1	i	3.1	2.6	-2.6
